MT1-MMP act inh = inhibitors of human MT1-MMP activation; GFP/RFP ratio change, % at 20 µM; 360,000 compounds, 0.061% hits; AID 651647; HT1080 RFP-PRO-GFP cells, GFP/RFP ratio fluorescence, overnight; percent of plate control window, DMSO zero; P50281;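 active means GFP/RFP ratio change of at least 30% with cell ATP level not reduced by more than half and red fluorescence within 50% of control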; further: strong numbers were not always called active
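Compound: 20 µM single dose, 1% DMSO / System: HT1080 RFP-PRO-GFP cells / Controls: DMSO and RFP-L50D-GFP cell wells / Read-out basis: GFP/RFP fluorescence ratio / Schedule: overnight compound exposure at 37 °C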
PABP FP inh = PABP-poly(A) binding inhibition; P11940; PABP-poly(A) RNA binding, fluorescence polarization; inhibition, % at 35 µM; 290,000 compounds, 1% hits; AID 2014;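 active means 50% or more with normal probe brightness, or confirmed in later tests; inconclusive means above 50% with abnormal brightness, or retests that disagree; inactive means below 50% or failed in later tests; about a fifth of its hits are not listed in these tables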;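 further: calls also rest on retests at 20 µM and on dose response follow-up; controls were probe without protein and protein plus probe with vehicle; some compounds called inactive have numbers as strong as hits; many hits fall short of the cut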
Target sequence (P11940 whole entry, looked up): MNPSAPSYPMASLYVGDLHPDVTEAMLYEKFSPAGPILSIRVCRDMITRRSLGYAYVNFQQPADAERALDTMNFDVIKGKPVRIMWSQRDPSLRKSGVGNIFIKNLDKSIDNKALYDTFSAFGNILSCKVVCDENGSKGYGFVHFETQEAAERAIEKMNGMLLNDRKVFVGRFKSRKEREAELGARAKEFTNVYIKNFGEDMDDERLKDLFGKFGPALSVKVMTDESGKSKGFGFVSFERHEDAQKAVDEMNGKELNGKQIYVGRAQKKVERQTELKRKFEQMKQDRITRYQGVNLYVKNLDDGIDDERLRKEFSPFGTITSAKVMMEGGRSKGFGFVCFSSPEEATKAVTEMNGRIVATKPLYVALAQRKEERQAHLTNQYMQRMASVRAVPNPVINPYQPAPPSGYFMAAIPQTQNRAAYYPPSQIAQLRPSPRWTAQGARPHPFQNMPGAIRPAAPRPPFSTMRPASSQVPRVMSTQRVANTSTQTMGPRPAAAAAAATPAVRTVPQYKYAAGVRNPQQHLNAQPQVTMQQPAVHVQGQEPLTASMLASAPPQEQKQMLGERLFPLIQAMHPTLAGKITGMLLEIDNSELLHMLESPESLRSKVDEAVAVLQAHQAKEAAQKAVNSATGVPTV
UUG fidelity = modulators of start codon recognition fidelity in yeast | activity score, % at 18.7 µM | S. cerevisiae UUG-firefly luciferase reporter, luminescence/redox ratio | 350,000 compounds, 0.13% hits;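 active means replicate mean at a twofold rise or more, about +100% in these data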;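 further: firefly luciferase made from a UUG start codon reports start codon fidelity; reporter light over untreated wells divided by growth signal over untreated wells; some hits fall short of that in this replicate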
eIF4H FP inh = inhibitors of RNA binding by human eIF4H. 290,000 compounds, 0.94% hits. eIF4H fluorescence polarization binding assay. inhibition, % at 35 µM. AID 2012. Q15056;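 active means 50% or more with normal probe brightness, or confirmed in later tests; inconclusive means above 50% with abnormal brightness, or retests that disagree; inactive means below 50% or failed in later tests; about a fifth of its hits are not listed in these tables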;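 further: calls also rest on retests at 20 µM and on dose response follow-up; 0% = protein and probe with vehicle and 100% = probe without protein; strong numbers were not always called active; many hits fall short of the cut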
Rce1 inhib = inhibitors of yeast Ras-converting enzyme. calls only. yeast membranes, quenched prenylated peptide cleavage fluorescence. 290,000 compounds, 0.27% hits. Q03530;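 active means fall in fluorescence gain of 50% or more versus controls, with final raw signal at or below 3038400; inconclusive means same 50% fall but final raw signal above 3038400; inactive means fall in fluorescence gain under 50%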;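 further: plate controls were neutral control wells for no effect and wells lacking membranes for full effect; tested at 10 µM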
Env fusion inh = blocks HIV Env-driven cell-cell fusion; HeLa-JRFL Env/CEM21 cell fusion, luciferase; inhibition, % at 12.3 µM; 360,000 compounds, 1.1% hits;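 active means mean replicate inhibition score of at least 50 and every replicate individually at or above 50; inconclusive means only one of the two criteria met; inactive means mean below 50 and not all replicates reaching 50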;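 further: 0% = plate neutral controls and 100% = maraviroc near 300 nM; one replicate is shown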
CSC inhib = blocks cancer stem cells. cancer stem cell-like cells viability, luminescence. inhibition, % at 7.5 µM. 300,000 compounds, 1.1% hits. AID 2717;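 active means mean at 75% or more and at least half the replicates too; inconclusive means mean and replicates disagree; tested in HMLE shEcad cells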;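 further: 0% = median of negative and 100% = median of positive control wells; the first replicate is given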
eIF4H FP inh retest = second read-out of eIF4H FP inh, no call of its own (marks repeat the call); inhibition, %; compound at 20 µM; confirmation average;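 mean of two retest wells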
PABP FP inh retest = second read-out of PABP FP inh, no call of its own (marks repeat the call); inhibition, %; compound at 20 µM; confirmation repeats;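 mean of two retest wells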
MT1-MMP act inh RFP = further read-out of MT1-MMP act inh, marked with its call; RFP signal change, %; measured here: RFP expression control read;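 0 = vehicle wells; hits needed this value within 50% of zero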
Starred values were filed as active, the others as inactive; i = inactive; ? = inconclusive; nt = no result given; & = joins results of further samples.

SMILES	MT1-MMP act inh	MT1-MMP act inh RFP	PABP FP inh	UUG fidelity	eIF4H FP inh	Rce1 inhib	Env fusion inh	CSC inhib	others
CCn1ccnc1CN(C)C(=O)c1ccc2nc(Cc3ccc(OC)cc3)oc2c1	4	5	0	-14	-6	i	-2	8
CC(OC(=O)CCCN=C1NS(=O)(=O)c2ccccc21)C(=O)Nc1ccc(F)c(F)c1F (configuration not stated)	8	2	nt	-21	nt	i	-2	-4
CCOc1ccc(NC(=O)CSc2nc(C)c3c(c2C#N)CCCC3)cc1	7	5	-1	-19	-8	i	-7	-4
COc1ccc(CC(=O)NCc2nnc(SCc3ccc(C)cc3)n2C)cc1	2	3	0	nt	5	i	5	-9
CC(C)OCCCNc1ncc2c(n1)CC(c1ccccc1)CC2=O (configuration not stated)	5	-5	-3	nt	7	i	-9	-2
COc1cc(/C=N/NC(=O)Cn2nc([N+](=O)[O-])cc2C)cc(Br)c1OCc1ccccc1	-12	-10	2	-5	-2	i	nt	-10
CCN(CC)C(=O)Cn1c(=O)n(CC(=O)N2CCCCC2)c(=O)c2sccc21	-3	5	5	nt	0	i	4	-9
CCCN(CCC)CC(O)Cn1cc(/C=C/C(=O)c2ccccc2)c2ccccc21 (configuration not stated)	-14	-5	-8	8	-6	i	-5	nt
Cc1onc(-c2ccccc2)c1C(=O)NC(=S)Nc1sc2c(c1C#N)CCC(C)C2 (configuration not stated)	5	1	-12	nt	-10	i	-19	23
O=c1[nH]c2ccccc2n1CCCN1CCCCC1	1	7	16	nt	4	i	-9	-1
Cc1cccc(Oc2ccc3c(c2)cc(C(=O)O)n3C)c1	-5	1	4	-12	7	i	2	-1
Cc1cccc(C)c1-n1c(C)nn(CC#N)c1=O	0	-2	-2	1	5	i	9	-16
Cc1c(C(=O)Nc2ccc(Cl)cc2)c2ccccn2c1C(=O)c1ccc(F)cc1	6	-2	-5	-15	-2	i	-23	-5
CCN(CC)C(=O)c1cc(Cl)ccn1	-1	0	-2	-2	-1	nt	11	-4
CC(Cl)C(=O)Nc1cc(C(F)(F)F)ccc1N1CCOCC1 (configuration not stated)	-2	0	-9	nt	1	i	-28	5
COc1ccc(CC(C(=O)Nc2ccc(OC)cc2)c2nn[nH]n2)cc1 (configuration not stated)	1	5	6	-2	-3	i	-5	-36
O=c1[nH]c(SCc2cccc(Cl)c2)nc2[nH]ncc12	5	3	54	nt	10	i	-11	20	eIF4H FP inh retest=30;PABP FP inh retest=12
COc1cc([N+](=O)[O-])ccc1NC(=O)Nc1cccnc1	4	2	7	-10	-7	i	7	0
Cc1ccc(C(=O)OCC(=O)NC2CCCCCC2)c(C)c1	-2	-1	nt	-11	nt	nt	5	nt
CC(C)(C)c1ccc(CN(Cc2ccco2)Cc2nnnn2C2CCCC2)cc1	-15	-7	9	nt	-4	i	nt	-4
CCn1c(CC(=O)Nc2ccc(C)cc2)nnc1SCC(=O)NCCc1ccccc1	5	-1	7	nt	4	i	4	-12
Cc1ccc(NC(=O)ON=C2CCCC2)cc1	2	7	7	nt	-4	i	nt	6
Cc1oc(-c2ccc3c(c2)OCCO3)cc1C(=O)NC(Cc1ccccc1)C(=O)O (configuration not stated)	1	3	5	nt	-4	i	3	-4
NC1=NC(=O)S/C1=C\c1ccc(O)cc1	-4	-5	-1	nt	-2	i	-25	7
Cc1c(C(=O)OCC(=O)Nc2ccccc2OC(F)F)cccc1[N+](=O)[O-]	2	4	6	nt	-2	nt	18	5
(more compounds)
SMILES	MT1-MMP act inh	MT1-MMP act inh RFP	PABP FP inh	UUG fidelity	eIF4H FP inh	Rce1 inhib	Env fusion inh	CSC inhib	others
Cc1ccc(NC(=S)Nc2cccc3ccccc23)cc1F	-1	6	8	-35	-4	i	-30	36
CCOC(=O)c1ccccc1NC(=O)CSC(C)C(=O)Nc1cc(C)on1 (configuration not stated)	-6	3	nt	-14	nt	i	-4	1
O=C(O)c1cnc2ccccc2n1	-4	1	40	-11	-1	i	-63	-7
COc1cccc(NS(=O)(=O)NC(=O)c2cn(C)c3ccccc23)c1	7	5	5	-7	-2	i	3	1
O=C(Nc1ccnn1C1CCN(C(=O)c2ccc(F)c(Cl)c2)CC1)C1CC1	0	5	-6	1	-4	nt	14	1
CCc1cc(C(=O)NN2C(=O)NC3(CCCCC3)C2=O)sc1C	8	3	nt	-3	nt	nt	1	nt
Cc1noc(C)c1S(=O)(=O)N1CCN(c2ccccc2Cl)CC1	0	-5	nt	-11	nt	nt	-87	nt
Cc1cc(C(=O)Nc2ccccc2)c(C)o1	3	5	-6	15	-7	i	nt	11
Nc1nonc1C(=O)NCCNS(=O)(=O)c1ccc(F)cc1	2	7	3	nt	6	i	7	nt
COc1ccc(NC(=O)CSc2nc3c([nH]c4ccccc43)c(=O)n2C)cc1	1	3	-17	-48	-8	i	11	6
C#CC[N+](C)(C)CCCCCCCC	3	5	4	nt	0	i	16	10
COc1ccc(C(=O)N2c3ccccc3CC2C)cc1OC (configuration not stated)	2	7	3	-5	0	i	nt	-19
Cc1sc(NC(=O)CSc2ncn(-c3ccccc3)n2)nc1-c1ccccc1	-6	-7	-2	-10	0	i	-106	16
CN(C)S(=O)(=O)c1ccc(C(=O)NCC(C)(C)CN=C2NS(=O)(=O)c3ccccc32)cc1	0	-4	0	nt	44	i	-3	-10
Cc1ccc(S(=O)(=O)NCCCCCCNS(=O)(=O)c2ccc(C)cc2)cc1	-2	-8	nt	-8	nt	nt	7	nt
COC(c1ccc(Cl)cc1)(c1ccc(Cl)cc1)C(Oc1nccc(C)n1)C(=O)O (configuration not stated)	-1	2	0	-9	-15	i	-1	-11
COc1ccc(N2CCN(C(CNS(=O)(=O)c3ccc4c(c3)OCCO4)c3ccco3)CC2)cc1 (configuration not stated)	-4	-16	-3	-4	6	i	11	-5
CCOP(=O)(OCC)/C(=N/OC(=O)c1cccc([N+](=O)[O-])c1)C(N)=O	1	3	1	-8	6	i	9	-18
CCCCCn1nnc2c(=O)oc3ccccc3c21	2	2	6	nt	-8	i	20	-3
Nc1cccc(-c2cnc3ccccc3n2)c1	3	-1	7	-42	-6	i	-39	12
COc1ccc2cc3c(N)nn(C(=O)c4ccccc4[N+](=O)[O-])c3nc2c1	-15	-8	4	nt	-4	i	44	-1
COc1ccccc1C1(O)CCN(CC(=O)Nc2nc(-c3ccccc3)cs2)CC1	-5	-21	8	0	-11	i	-3	0
COc1ccc(/C=C/C(=O)N(C(C)C)C(C)C)cc1Br	3	-3	10	-1	-1	i	-2	-9
O=C(Nc1ccc2c(c1)OCCO2)c1ccc(Cl)c([N+](=O)[O-])c1	0	-9	-3	nt	-7	i	-67	-4
O=C(Nc1ccccc1N1CCCC1)c1cccc(F)c1	-6	-3	11	2	-7	i	15	-4
Other results follow:
SMILES	MT1-MMP act inh	MT1-MMP act inh RFP	PABP FP inh	UUG fidelity	eIF4H FP inh	Rce1 inhib	Env fusion inh	CSC inhib	others
Nc1ncc([N+](=O)[O-])c(N2CCCCCC2)n1	-16	-10	10	-3	-2	i	52	-5
COC(=O)c1ccccc1S(=O)(=O)NCc1nc2nc(C)cc(C)n2n1	2	5	-3	-15	-7	i	18	-5
O=C(Cn1nc(C(=O)O)c2ccccc2c1=O)Nc1cc(C(F)(F)F)ccc1-n1cncn1	0	1	nt	-11	nt	nt	-8	nt
Cc1nc2scc(C)n2c(=O)c1S(=O)(=O)NCc1ccc(F)cc1	-6	-1	4	-16	-4	i	3	-12
CN(C)c1ccc(N2C(=NC(=O)COc3ccccc3)SC3CS(=O)(=O)CC32)cc1 (configuration not stated)	1	-1	0	-13	-5	i	3	2
CC1CCN(C(=O)c2ncn(Cc3ccccc3)c2C(=O)N2CCC(C)CC2)CC1	1	3	nt	-21	nt	nt	-25	-12
O=C(NCCO)c1scc2c1OCCO2	-8	-10	0	-14	1	i	nt	nt
Cc1nn(C)cc1/C=N/NC(=O)C(C)(C)Oc1ccc(Cl)cc1	-1	0	0	7	-2	i	-1	-8
COC(=O)CCCC1=CC2=C(c3ccccc3)C(=O)C(C)(OC(=O)C3CCCC3)C(=O)C2=CN1c1ccccc1 (configuration not stated)	-13	-4	16	-9	9	i	-7	-10
[O-][n+]1ccccc1SCc1ccccc1	3	7	nt	-14	nt	i	20	2
Cc1onc(-c2c(Cl)cccc2Cl)c1C(=O)NC1C(=O)N2C1SC(C)(C)C2C(=O)O (configuration not stated)	-6	1	3	7	-5	i	-14	-17
O=C(CNc1cccc(S(=O)(=O)N2CCOCC2)c1)Nc1ccccc1F	2	3	-2	-19	-7	nt	2	-18
CCOC(=O)C1(Cc2cccc(OC)c2)CCN(Cc2cc(OC)ccc2OC)CC1	-3	-5	-2	nt	-11	i	-33	13
CCOc1ccccc1C1C(C#N)=C(N)SC(N)=C1C#N	-163	-3	?	-6	?	i	nt	-11
COc1ccc(C)c(NC(=O)C2CC(=O)NC3=C2C(=O)CCC3)c1 (configuration not stated)	4	3	-3	-14	2	i	-13	-5
O=C(O)Cn1nnc(-c2ccc(OCc3ccccc3)cc2)n1	-3	1	nt	1	nt	i	-3	-13
O=C(COC(=O)c1cnc(Cl)c(Cl)c1)Nc1ccc(S(=O)(=O)N2CCCC2)cc1	-5	6	-2	nt	-4	i	11	1
CC1(C)CC(=O)C2=C(C1)NCN(CCCN1CCOCC1)C2	2	2	5	-18	-9	i	-18	-6
O=C(NCc1ccccc1)c1onc(CSc2ccccn2)c1C(=O)NCc1ccccc1	-2	-1	6	-22	-3	i	16	27
COc1ccc(NC(=O)CS(=O)CC(=O)Nc2ccc(F)cc2F)cc1 (configuration not stated)	0	1	2	-16	-3	i	-2	3
CC(C)COC(=O)c1ccc(NC(=O)C2C3CCC(C3)C2C(=O)O)cc1 (configuration not stated)	4	1	-3	-11	4	i	nt	39
COc1ccc(-c2nc(CS(=O)(=O)CC(=O)NCCCN3CCN(C)CC3)c(C)o2)cc1	0	1	9	4	-6	i	12	0
CCN(CC(=O)NC1CCS(=O)(=O)C1)S(=O)(=O)c1ccc(Cl)cc1C(F)(F)F (configuration not stated)	1	0	nt	-2	nt	i	nt	-11
COc1ccc(/C=C/C(=O)NNc2cc(=O)n(C)c(=O)n2C)cc1OC	5	3	0	nt	-4	i	8	9
COc1ccc2[nH]c3c(c2c1)CCC/C3=N\N	-8	-2	8	-25	3	i	36	-4
Other results
SMILES	MT1-MMP act inh	MT1-MMP act inh RFP	PABP FP inh	UUG fidelity	eIF4H FP inh	Rce1 inhib	Env fusion inh	CSC inhib	others
Cc1cc(NC(=O)CCC(=O)N(c2ccccc2)C(C(=O)NC2CCCCC2)c2cccs2)no1 (configuration not stated)	1	2	-10	-16	-10	i	nt	-17
COC(=O)N(C)C[C@@H]1OCc2cnnn2CCCC(=O)N([C@H](C)CO)C[C@@H]1C	3	5	nt	-5&-4	nt	nt	11	nt
COc1ccc(C(=O)c2sc(Nc3ccccc3)c(C(=O)Nc3ccc(OC)c(OC)c3)c2N)cc1	5	6	-7	-2	4	i	6	19
O=C(NNC(=O)c1cc(S(=O)(=O)N2CCCCC2)ccc1Cl)c1ccccc1O	3	-2	nt	-22	nt	nt	nt	31
COc1cc(OC)c(C(=O)O/N=C(\N)c2cccc(C)c2)cc1OC	0	-3	6	2	-15	i	-2	-2
COc1ccc(-n2ncc3c(NCCCn4ccnc4)ncnc32)cc1	1	-5	5	-21	7	i	-52	-3

Assay outcomes deposited in PubChem BioAssay by several laboratories.

An excerpt; count on the stated rates, not on these rows.
